Source: PubChem
UUG fidelity: yeast start codon fidelity modulation | S. cerevisiae UUG-firefly luciferase reporter, luminescence/redox ratio | hit rate 0.13% among 350,000 | activity score, % at 18.7 µM;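 active means replicate mean at a twofold rise or more, about +100% in these data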;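 further: firefly luciferase made from a UUG start codon reports start codon fidelity; reporter light over untreated wells divided by growth signal over untreated wells; some hits fall short of that in this replicate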
Rce1 inh: inhibitors of yeast Ras-converting enzyme; Q03530; yeast membranes, quenched prenylated peptide cleavage fluorescence; calls only; hit rate 0.27% among 290,000; AID 2563;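 active means fall in fluorescence gain of 50% or more versus controls, with final raw signal at or below 3038400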;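 further: plate controls were neutral control wells for no effect and wells lacking membranes for full effect; tested at 10 µM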
Target sequence (Q03530 whole entry, looked up): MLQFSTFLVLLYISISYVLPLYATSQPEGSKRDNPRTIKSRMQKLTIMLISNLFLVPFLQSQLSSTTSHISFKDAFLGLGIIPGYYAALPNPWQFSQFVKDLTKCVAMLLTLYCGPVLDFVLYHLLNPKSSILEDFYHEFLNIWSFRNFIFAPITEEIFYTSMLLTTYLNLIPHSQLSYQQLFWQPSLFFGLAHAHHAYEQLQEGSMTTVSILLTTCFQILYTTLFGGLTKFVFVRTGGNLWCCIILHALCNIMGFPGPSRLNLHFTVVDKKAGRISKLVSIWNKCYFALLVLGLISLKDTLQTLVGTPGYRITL
HIV Env fusion: HIV envelope-mediated fusion inhibition; HeLa-JRFL Env/CEM21 cell fusion, luciferase; inhibition, % at 12.3 µM; hit rate 1.1% among 360,000;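 active means mean replicate inhibition score of at least 50 and every replicate individually at or above 50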;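 further: 0% = plate neutral controls and 100% = maraviroc near 300 nM; one replicate is shown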
PABP polyA inh: PABP-poly(A) binding inhibition; PABP-poly(A) RNA binding, fluorescence polarization; inhibition, % at 35 µM; hit rate 1% among 290,000; AID 2014;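 active means 50% or more with normal probe brightness, or confirmed in later tests; about a fifth of its hits are not listed in these tables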;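 further: calls also rest on retests at 20 µM and on dose response follow-up; controls were probe without protein and protein plus probe with vehicle; some compounds called inactive have numbers as strong as hits; many hits fall short of the cut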
Target sequence (P11940 whole entry, looked up): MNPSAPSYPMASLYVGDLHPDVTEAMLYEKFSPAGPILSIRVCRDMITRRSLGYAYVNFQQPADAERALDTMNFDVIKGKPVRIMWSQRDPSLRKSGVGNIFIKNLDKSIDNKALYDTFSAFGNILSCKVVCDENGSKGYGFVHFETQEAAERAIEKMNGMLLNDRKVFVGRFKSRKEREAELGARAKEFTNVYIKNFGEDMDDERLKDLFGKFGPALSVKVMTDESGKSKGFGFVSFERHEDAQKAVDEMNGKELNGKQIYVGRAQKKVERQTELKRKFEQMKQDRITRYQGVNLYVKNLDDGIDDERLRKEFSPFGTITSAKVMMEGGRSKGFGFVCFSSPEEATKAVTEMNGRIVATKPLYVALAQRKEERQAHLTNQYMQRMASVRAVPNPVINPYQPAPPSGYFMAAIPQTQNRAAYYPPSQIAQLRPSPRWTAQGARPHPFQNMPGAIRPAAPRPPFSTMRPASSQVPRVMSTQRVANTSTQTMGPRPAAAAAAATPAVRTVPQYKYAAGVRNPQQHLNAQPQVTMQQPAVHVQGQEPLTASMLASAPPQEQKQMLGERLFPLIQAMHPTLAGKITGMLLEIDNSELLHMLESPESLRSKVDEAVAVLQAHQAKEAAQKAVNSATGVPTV
CSC inhib: cancer stem cell inhibition | hit rate 1.1% among 300,000 | cancer stem cell-like cells viability, luminescence | AID 2717 | inhibition, % at 7.5 µM;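 active means mean at 75% or more and at least half the replicates too; tested in HMLE shEcad cells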;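 further: 0% = median of negative and 100% = median of positive control wells; the first replicate is given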
eIF4H inh: inhibitors of RNA binding by human eIF4H; AID 2012; inhibition, % at 35 µM; Q15056; eIF4H fluorescence polarization binding assay; hit rate 0.94% among 290,000;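 active means 50% or more with normal probe brightness, or confirmed in later tests; about a fifth of its hits are not listed in these tables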;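 further: calls also rest on retests at 20 µM and on dose response follow-up; 0% = protein and probe with vehicle and 100% = probe without protein; strong numbers were not always called active; many hits fall short of the cut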
MT1-MMP act inh: MT1-MMP (human) activation inhibition | HT1080 RFP-PRO-GFP cells, GFP/RFP ratio fluorescence, overnight; percent of plate control window, DMSO zero | GFP/RFP ratio change, % at 20 µM | hit rate 0.061% among 360,000 | AID 651647;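 active means GFP/RFP ratio change of at least 30% with cell ATP level not reduced by more than half and red fluorescence within 50% of control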; further: strong numbers were not always called active
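Material: RFP-PRO-GFP reporter HT1080 cells. Dosing: single-point 20 µM compound, 1% DMSO. Controls: DMSO and RFP-L50D-GFP cell wells. Timing: cells overnight before dosing, compound overnight, 37 °C, 5% CO2. Measure: GFP/RFP fluorescence ratio.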
MT1-MMP act inh RFP: recorded beside MT1-MMP act inh, whose call it bears; RFP signal change, %; measured here: RFP expression control read;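 0 = vehicle wells; hits needed this value within 50% of zero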
Starred values were filed as active, the others as inactive; i = inactive; nt = not tested or not shown. Only part of the results is shown (hit frequency here may not be typical).

SMILES | UUG fidelity | Rce1 inh | HIV Env fusion | PABP polyA inh | CSC inhib | eIF4H inh | MT1-MMP act inh | MT1-MMP act inh RFP
Cc1cc(Br)c(NC(=O)COn2nnc3ccc(S(C)(=O)=O)cc32)c(Br)c1 | nt | i | -6 | 2 | 12 | -1 | 0 | -1
Cc1cc(Br)c(NC(=O)CCl)c(Br)c1 | nt | i | 5 | -7 | -2 | -2 | -2 | -1
O=C(CCCn1nnnc1CN1CCOCC1)N1CCN(c2ccccc2F)CC1 | -8 | i | -7 | -16 | 6 | -4 | -6 | -1
CCn1ncc(Cl)c1C(=O)NC(=S)Nc1ccccc1Br | -32 | nt | 21 | -2 | 1 | 2 | -7 | 1
Cc1ccc(NC(=O)CN(C)S(=O)(=O)c2cccc3cccnc23)cc1C | 1 | i | 16 | -5 | 2 | -8 | 2 | -3
Cn1nc(C(=O)NC2CCCCCC2)ccc1=O | -13 | i | -31 | 2 | -5 | -1 | 1 | 2
CC[C@]12c3[nH]c4ccc(Cl)cc4c3CCN1C(=O)[C@@H](CC(=O)NCc1ccco1)C[C@@H]2C(=O)N1CCN(C(=O)c2ccco2)CC1 | 8 | nt | -136 | nt | nt | nt | 3 | -1
CCOc1ccc(N(C(C)C(=O)NC(C)CC)S(C)(=O)=O)cc1 (configuration not stated) | 2 | i | -27 | -10 | -7 | -9 | -1 | 0
Cc1ccc(NC(=O)CC2S/C(=N/N=C/c3ccco3)NC2=O)cc1Cl (configuration not stated) | nt | i | 1 | 26 | 0 | 3 | 4 | 5
O=C1NC2(CCCCCC2)Cc2ccccc21 | -6 | i | nt | -3 | -5 | -13 | -3 | -5
O=c1[nH]cnc2cc(-c3ccc(Br)cc3)sc12 | -7 | i | -64 | -16 | 21 | 5 | -14 | -6
O=C1CSC(=S)N1N=Cc1cccc(OCc2ccccc2)c1 | -38 | nt | -8 | nt | nt | nt | 0 | 9
CC(C)(C)Cc1c(-c2ccc(Cl)cc2)nc2ccc(Br)cn12 | 1 | nt | -38 | nt | nt | nt | -9 | -7
COc1ccc(/C=N/NC(=O)c2[nH]ncc2Br)c(OC)c1 | -17 | i | nt | -9 | -13 | 4 | 5 | 1
Cc1ccccc1-c1nc(CS(=O)CC(=O)NCc2ccccc2)c(C)o1 (configuration not stated) | 11 | i | -14 | 1 | -9 | -4 | 1 | 3
Cc1nnc(N2C(=O)C(=O)/C(=C(/O)c3ccc4c(c3)CC(C)O4)C2c2ccccc2F)s1 (configuration not stated) | -17 | i | 5 | 12 | 1 | -7 | -1 | 3
Cn1cc([N+](=O)[O-])c(C(=O)NNC(=O)c2ccc([N+](=O)[O-])cc2Cl)n1 | nt | i | 10 | -4 | -11 | 12 | -1 | 1
CCOC(=O)c1ccccc1NC(=O)Cn1cnc2c(oc3ccccc32)c1=O | -3 | i | -54 | 6 | -34 | 0 | 6 | 1
NC(=O)c1sc2nc3c(cc2c1N)CCCCCC3 | nt | i | 6 | 4 | -16 | -1 | -4 | -5
COC(=O)Cn1c(O)c(N=NC(=O)CNC(=O)COc2cccc(C)c2)c2ccccc21 | -13 | i | 4 | -3 | -19 | -6 | -3 | 3
CCc1noc(C)c1C(=O)NCCc1ccc(F)cc1 | -8 | i | 1 | nt | -5 | nt | 1 | 2
O=C(c1cccc(NS(=O)(=O)c2ccccc2)c1)N1CCN(c2ccccc2)CC1 | 5 | i | 2 | nt | -9 | nt | 7 | 5
CC1Sc2ccc(S(=O)(=O)N3CCC(C(=O)NCc4ccc(Cl)cc4)CC3)cc2NC1=O (configuration not stated) | -3 | i | -8 | 2 | -5 | -8 | -1 | -18
N#Cc1cccc(C(Br)S(=O)(=O)c2ccccc2)c1 (configuration not stated) | -12 | nt | -18 | nt | nt | nt | 0 | 2

Part of the list above, reduced to eIF4H inh.
mol,eIF4H inh
COC(=O)Cn1c(O)c(N=NC(=O)CNC(=O)COc2cccc(C)c2)c2ccccc21,-6
Cn1cc([N+](=O)[O-])c(C(=O)NNC(=O)c2ccc([N+](=O)[O-])cc2Cl)n1,12

Later entries.
SMILES | UUG fidelity | Rce1 inh | HIV Env fusion | PABP polyA inh | CSC inhib | eIF4H inh | MT1-MMP act inh | MT1-MMP act inh RFP
CCN1CCc2nc(NC(=O)c3cc(F)c(F)cc3Cl)sc2C1 | nt | i | 0 | 0 | -4 | 8 | 3 | 2
Cc1cc(/C=N\NC(=O)CC(=O)NC2CCCCC2)c(C)n1-c1ccc(Cl)cc1 | nt | i | nt | 11 | 6 | -7 | -8 | 0
CN(C)CCCNC(=O)C(=O)Nc1cc2c3c(c1)CCC(=O)N3CCC2 | nt | i | -25 | -1 | -12 | 6 | 1 | 0
O=C(CCc1nnc2n(Cc3ccc(F)cc3)c(=O)c3ccccc3n12)NCCN1CCOCC1 | -2 | i | 10 | -2 | -7 | -21 | 0 | 9
Cc1cc(C)n(-c2cc(N3CCN(S(=O)(=O)c4ccc(Cl)cc4)CC3)ccc2[N+](=O)[O-])n1 | -8 | i | 11 | 26 | -3 | -5 | -1 | -13
COc1ccccc1NC(=O)c1nnn(Cc2ccccc2)c1NC(=O)C(F)(F)F | -1 | i | -28 | -1 | 1 | -6 | 4 | -4
Cc1ccc(Cl)cc1N1CCN(C(=O)COc2ccc3c(c2)CCC3)CC1 | -22 | i | 40 | 7 | 30 | 2 | 0 | -4
COc1ccc2c(c1)cc1n2CCN=C1NN | -22 | i | -46 | 10 | -13 | -12 | 5 | -5
CC(O)(c1ccncc1)c1nc(-c2cccc(C(F)(F)F)c2)cs1 (configuration not stated) | -25 | nt | 3 | nt | nt | nt | -29 | -41
O=C(NCc1ccccc1)c1ccc(COCC(F)(F)F)o1 | -8 | i | nt | 1 | -10 | -3 | -10 | -1
COc1ccc2cc3cc(C(=O)NCc4cccnc4)oc3nc2c1 | nt | i | -68 | 36 | 43 | -5 | 12 | -4
CCOc1ccc(S(=O)(=O)N2CCc3cc(OC)c(OC)cc3C2)cc1 | nt | i | nt | 9 | -3 | 6 | -3 | -3
COc1ccccc1C(=O)NNC(=O)c1ccccc1Br | -11 | i | -14 | -9 | -5 | -3 | -4 | 6
COc1ccc(OC)c(C(O)c2ncc(-c3cccc4ccccc34)[nH]2)c1 (configuration not stated) | -14 | nt | -35 | nt | nt | nt | -6 | 6
O=C(Nc1ncc2c(n1)-c1ccccc1OC2)c1ccc(Cl)cc1 | 1 | i | -19 | 4 | 5 | -10 | 3 | 0
Cc1noc(C)c1C(=O)N1CCN(C(=O)c2sc3cc(Cl)ccc3c2Cl)CC1 | nt | i | -31 | 7 | -6 | -5 | 0 | 0
O=C(NNC(=O)C1CCN(Cc2cccc(F)c2)CC1)c1cccc(Cl)c1 | -15 | i | nt | 6 | -11 | -6 | 1 | 2
O=C(CSc1nc2ncc(Cl)cc2[nH]1)NCC(=O)Nc1ccc(F)c(F)c1F | nt | i | 10 | 11 | -2 | -4 | -1 | 3
Cn1c(=O)[nH]c(=O)c2c1nc(N1CCCCC1)n2CCCSc1nc2ccccc2s1 | -6 | i | nt | 17 | -16 | 8 | -2 | -9
CNC[C@@H](CC1CCCCC1)NC[C@H](CC(C)C)NCCc1cccc(C(F)(F)F)c1 | 8 | i | 93* | -18 | 111* | -3 | -33 | -21
CCNC(=O)C1(C)CCN(C(=O)c2ccc(OC)cc2OC)C1 (configuration not stated) | -6 | nt | -6 | nt | nt | nt | 2 | 3
COc1ccccc1C(=O)NC(C)C(c1cccs1)N1CCN(C)CC1 (configuration not stated) | nt | i | -48 | -2 | -15 | -7 | -13 | -5
COc1ccc(Cl)cc1S(=O)(=O)N1CCC(O)(c2ccc(Cl)cc2)CC1 | nt | i | 6 | 2 | 6 | 1 | 3 | -2
COc1ccc(CNC(=O)C2CCN(S(=O)(=O)c3c(C)noc3/C=C/N(C)C)CC2)cc1 | 8 | i | nt | 8 | 5 | -13 | -9 | 0
CC(Oc1ccc(Cl)cc1Cl)C(=O)N(Cc1ccco1)C1CCS(=O)(=O)C1 (configuration not stated) | 9 | i | nt | -3 | 10 | 0 | -1 | -1
Cn1c(SCC(=O)Nc2ccc(N3CCOCC3)c(Cl)c2)nnc1C(O)c1ccccc1 (configuration not stated) | -14 | i | -61 | -4 | -2 | 2 | 2 | 0
Cc1ccc(S(=O)(=O)N2CCN(Cc3nc4sc5c(c4c(=O)[nH]3)CCCC5)CC2)cc1 | nt | i | 0 | -10 | -3 | 8 | -4 | -5
CC1CCN(C(=O)C(C)c2ccc([N+](=O)[O-])cc2)CC1 (configuration not stated) | nt | i | -5 | 2 | 0 | 9 | -2 | 2
CCC(=O)c1ccc(OCC(=O)Nc2ccc3c(c2)OCCO3)cc1 | nt | nt | -62 | nt | 10 | nt | -5 | 0
Cc1c(NC(=O)CCC(=O)N2CCCCC2)c(=O)n(-c2ccccc2)n1C | -11 | i | nt | -6 | -5 | 0 | 0 | -2
O=C(O)CNC(=S)N(Cc1ccc(F)cc1)C1CCCCC1 | nt | i | -9 | -14 | -7 | 0 | -1 | 1
Cc1ccc(Cn2nnnc2CN2CCC(O)(c3ccccc3F)CC2)cc1 | -16 | i | nt | -16 | -36 | 1 | 4 | -7
CN1CCC(=O)N(CCSc2ccccc2)CC1 | -18 | i | -29 | 3 | 7 | -4 | 0 | 0
O=C(COC(=O)c1ccc(Cl)cc1[N+](=O)[O-])NC(=O)c1ccccc1 | -9 | i | 1 | -8 | -4 | -7 | -5 | -1
O=C(Nc1ccc(CN2CCOCC2)cc1)c1ccc(-c2cc(Cl)ccc2Cl)o1 | -18 | i | 24 | -2 | 60 | 3 | 8 | -13
CN1CCC(N2CCN(C3CN(CCc4ccccc4)S(=O)(=O)C3)CC2)CC1 (configuration not stated) | -3 | nt | 6 | nt | nt | nt | 2 | 5
CCOc1ccc(-n2c(-c3ccc(OC)cc3)c[n+]3c2CCCCC3)cc1 | nt | i | 67* | 12 | 34 | 0 | -13 | -27

Structures shown so far with a furan ring, fused or not (seven):
SMILES | UUG fidelity | Rce1 inh | HIV Env fusion | PABP polyA inh | CSC inhib | eIF4H inh | MT1-MMP act inh | MT1-MMP act inh RFP
CC[C@]12c3[nH]c4ccc(Cl)cc4c3CCN1C(=O)[C@@H](CC(=O)NCc1ccco1)C[C@@H]2C(=O)N1CCN(C(=O)c2ccco2)CC1 | 8 | nt | -136 | nt | nt | nt | 3 | -1
Cc1ccc(NC(=O)CC2S/C(=N/N=C/c3ccco3)NC2=O)cc1Cl (configuration not stated) | nt | i | 1 | 26 | 0 | 3 | 4 | 5
CCOC(=O)c1ccccc1NC(=O)Cn1cnc2c(oc3ccccc32)c1=O | -3 | i | -54 | 6 | -34 | 0 | 6 | 1
O=C(NCc1ccccc1)c1ccc(COCC(F)(F)F)o1 | -8 | i | nt | 1 | -10 | -3 | -10 | -1
COc1ccc2cc3cc(C(=O)NCc4cccnc4)oc3nc2c1 | nt | i | -68 | 36 | 43 | -5 | 12 | -4
CC(Oc1ccc(Cl)cc1Cl)C(=O)N(Cc1ccco1)C1CCS(=O)(=O)C1 (configuration not stated) | 9 | i | nt | -3 | 10 | 0 | -1 | -1
O=C(Nc1ccc(CN2CCOCC2)cc1)c1ccc(-c2cc(Cl)ccc2Cl)o1 | -18 | i | 24 | -2 | 60 | 3 | 8 | -13
